Compound activity deposited in PubChem BioAssay by several laboratories.
Beta apoptosis: beta cell apoptosis inhibition. INS-1E cytokine-induced death, ATP luminescence, 48 h; percent of positive-control rescue, neutral wells zero. protection from apoptosis, % (concentration not given with the values). 300,000 tested, 0.8% active. AID 435005;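 active means all replicates at 75% or more, or half of them and the mean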;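 further: 0% = cytokine-treated negative control wells and 100% = positive control rescue; higher means more ATP so stronger rescue from cytokine killing; wells of about 40 µL received 100 nL stock; the first replicate is given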
FGF22 binding: binders of recombinant human FGF22 by thermal shift | 340,000 tested, 1.5% active | SYPRO orange fluorescence; percent of sucrose octasulfate shift, DMSO zero | calls only at 9.99 µM | Q9HCT0;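 active means melting point raised past a set limit in the mean and every replicate; three in four hits are not shown here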
Target sequence (Q9HCT0 whole entry, looked up): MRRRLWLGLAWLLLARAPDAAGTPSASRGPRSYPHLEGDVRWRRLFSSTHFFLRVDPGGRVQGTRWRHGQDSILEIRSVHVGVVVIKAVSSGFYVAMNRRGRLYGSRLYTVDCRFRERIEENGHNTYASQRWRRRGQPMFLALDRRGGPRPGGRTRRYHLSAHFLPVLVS
UCH37 DUB inh: human UCH37 deubiquitinating enzyme inhibition. purified proteasome/UCH37, Ub-AMC cleavage fluorescence. Q9Y5K5. inhibition, % (test concentration not listed). AID 588478. 330,000 tested, 0.33% active;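 active means mean of two replicates above 20%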;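 further: 0% = compound-free wells with enzyme and 100% = wells lacking proteasome; stock transfer was 100 nL into about 20 µL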
Target sequence (Q9Y5K5 whole entry, looked up): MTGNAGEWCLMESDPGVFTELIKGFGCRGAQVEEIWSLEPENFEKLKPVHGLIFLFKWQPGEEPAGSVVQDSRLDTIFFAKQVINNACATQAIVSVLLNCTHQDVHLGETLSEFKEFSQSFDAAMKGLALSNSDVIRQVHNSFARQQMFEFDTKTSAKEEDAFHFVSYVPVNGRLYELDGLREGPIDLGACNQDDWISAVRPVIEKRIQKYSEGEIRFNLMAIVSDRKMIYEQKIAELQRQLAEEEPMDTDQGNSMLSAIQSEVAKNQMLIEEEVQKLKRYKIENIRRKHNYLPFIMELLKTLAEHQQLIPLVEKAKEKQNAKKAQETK
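Schedule: 30 min plus 25 min, room temperature / Material: human UCH37 within purified proteasomes / Technique: AMC fluorescence intensity at 355/460 nm / Buffer or medium: pH 7.4 Tris-HCl (50 mM) with ovalbumin, ATP-MgCl2, DTT / Controls: wells without proteasome as full block, compound-free enzyme plus substrate as uninhibited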
Bfl-1 A1 inh: inhibitors of the anti-apoptotic protein A1, read as caspase activation. 330,000 tested, 0.066% active. AID 2462. MEF A1-2A-BIM cells, Caspase-Glo 3/7 luminescence, 3 h; percent of clofoctol response, vehicle zero. caspase activation, % (test concentration not listed);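 active means over half of replicate activation scores above 10%, or exactly half above 10 with the replicate mean above 10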;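 further: wells of about 30 µL received 50 nL stock; many hits fall short of the cut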
rRNA inh HTS: inhibitors of bacterial rRNA selective over humanized ribosomes. E. coli WT GFP vs humanized-ribosome RFP mutants, fluorescence, 24 h; stronger effect = lower value; DMSO median 0, no signal -100. GFP signal change (wild-type ribosome), % (no concentration beside the values). 350,000 tested, 1.6% active;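 active means significant combined selectivity score with lowered wild-type GFP, culture density cut under 30%, mutant RFP and density less affected; inactive means any of these conditions unmet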; further: one replicate is shown; some compounds called inactive have numbers as strong as hits
E coli growth: inhibitors of Escherichia coli growth; OD600 absorbance (no concentration beside the values); OD600, 23 h; stronger effect = lower value; AID 1053175; 330,000 tested, 0.21% active;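 active means OD600 absorbance below the run mean of sample wells minus 3.6 SD, in any replicate, cut at about 0.56 in these data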;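 further: stock transfer was 300 nL into about 60 µL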
T cruzi repl: T. cruzi replication inhibition; T. cruzi beta-gal in NIH3T3, luminescence, 90 h; inhibition, % (test concentration not listed); 300,000 tested, 1.4% active; AID 1885;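 active means mean inhibition across valid replicates above about 55%, limit read from the data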;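 further: signal also drops with host cell toxicity which is not excluded here; 0% = plate median of DMSO wells and 100% = zero luminescence signal; higher percent means less beta-gal luminescence so fewer parasites; stock transfer was 50 nL into about 50 µL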
MLL AF4-AF9 inh: inhibitors of human MLL-AF4/AF9 interaction; inhibition, % at 10 µM; AlphaScreen, biotin-AF4 peptide binding to FLAG-AF9; 350,000 tested, 0.47% active;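 active means every replicate reaching a set inhibition limit, whatever the replicate mean, cut at about 25% in these data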;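 further: 0% = plate neutral control median and 100% = total signal loss; the record names both 10 and 1 µM as test concentration; the first replicate is given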
Target sequence (P42568 whole entry, looked up): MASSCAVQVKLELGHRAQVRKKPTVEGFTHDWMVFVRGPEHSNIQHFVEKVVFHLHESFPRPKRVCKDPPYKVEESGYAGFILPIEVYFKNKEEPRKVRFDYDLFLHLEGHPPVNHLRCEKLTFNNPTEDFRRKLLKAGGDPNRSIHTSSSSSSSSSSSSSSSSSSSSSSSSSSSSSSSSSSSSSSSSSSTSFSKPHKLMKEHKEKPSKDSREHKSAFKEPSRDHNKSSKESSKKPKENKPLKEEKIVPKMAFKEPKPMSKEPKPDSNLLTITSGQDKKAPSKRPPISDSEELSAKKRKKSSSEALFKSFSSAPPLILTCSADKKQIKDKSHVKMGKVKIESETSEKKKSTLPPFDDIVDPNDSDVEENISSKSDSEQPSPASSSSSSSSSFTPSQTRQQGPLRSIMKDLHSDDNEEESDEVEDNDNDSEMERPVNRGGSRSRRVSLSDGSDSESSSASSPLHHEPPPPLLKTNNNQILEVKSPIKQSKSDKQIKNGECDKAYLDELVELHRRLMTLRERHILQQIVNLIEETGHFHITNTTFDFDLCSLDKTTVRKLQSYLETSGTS
rRNA inh HTS OD600: also measured in rRNA inh HTS; calls as there; OD600 change, %; measured here: OD600 growth;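 optical density of the mix in the first replicate; 0 = DMSO median and -100 = no signal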
rRNA inh HTS RFP: recorded beside rRNA inh HTS, whose call it bears; RFP signal change, %; measured here: RFP humanized mutant strains;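 first replicate; 0 = DMSO median and -100 = no signal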
The depositor's hits bear a star; i = inactive; nt = not tested or not shown; & = joins results of further samples. The list is partial. The share of hits here may be higher or lower than overall.

SMILES | Beta apoptosis | FGF22 binding | UCH37 DUB inh | Bfl-1 A1 inh | rRNA inh HTS | rRNA inh HTS OD600 | rRNA inh HTS RFP | E coli growth | T cruzi repl | MLL AF4-AF9 inh
CC1(C)O[C@@H]2[C@H](O1)[C@@H](COS(=O)(=O)O)O[C@H]2n1cnc2c(=O)[nH]cnc21 | -2 | i | 4.0 | -0.1 | 5 | 11 | -9.4 | nt | nt | 0.3
CCCCN1C(=O)C2C3C=CC(C2C1=O)C1C2C(=O)N(CCCC)C(=O)C2C31 (centres undefined) | 3 | nt | 0.2 | 0.9 | nt | nt | nt | 0.67 | -3 | nt
Cn1ccc(NS(=O)(=O)c2cc(Br)ccc2Br)n1 | -4 | i | -2.3 | -1.2 | 4 | 10 | -0.8 | 0.68 | nt | -0.3
COc1ccccc1C(=O)N/C(=C\c1cn(C)c2ccccc12)C(=O)NCCCn1ccnc1 | 0 | i | 3.0 | 1.5 | 2 | 5 | -2.1 | 0.63 | 1 | 13
CC1CCCCC1NC(=O)CO/N=C/c1ccc(OC(F)F)cc1 (centres undefined) | 2 | i | nt | -0.1 | -3 | -8 | 1.3 | nt | -13 | 0.5
CCOC(=O)N1CCN(C(=O)c2cnn(-c3ccccc3)c2NC(=O)c2ccccc2F)CC1 | -8 | i | 4.9 | -0.3 | -2 | 6 | -1.9 | 0.68 | 2 | 0.5
Cc1cc(C)c(NC(=O)CC(C)(C)C)c(Cl)c1 | -4 | nt | 1.4 | 0.4 | nt | nt | nt | 0.73 | -2 | nt
Cc1ccc(S(=O)(=O)N2CCC(C(=O)NC3CCCC3)CC2)cc1Cl | 1 | i | -3.2 | 0.2 | 6 | 12 | -1.9 | 0.67 | 7 | -8.2
CC(C)NC(=O)c1ccc(-n2c(=S)[nH]c3ccccc3c2=O)cc1 | 0 | i | 7.2 | 0.8 | -1 | -3 | -5.0 | 0.7 | -17 | -1.0
CC(C)OCP(=O)(c1ccccc1)c1ccccc1 | -1 | nt | -4.4 | -0.2 | nt | nt | nt | 0.68 | 3 | nt
COc1ccc(C(=O)c2sc3nc(C)cc(-c4cccs4)c3c2N)cc1OC | 4 | i | -2.7 | -0.4 | -10 | -7 | -0.6 | 0.66 | 12 | -29
COC(=O)Nc1ccccc1C(=O)N1CCCCC1 | 3 | nt | -0.5 | -0.4 | nt | nt | nt | 0.72 | -1 | nt
CCOC(=O)c1c(C)[nH]c(C(=O)CSc2nccc(C)n2)c1C | 4 | i | 0.2 | 0.2 | 13 | 18 | 3.7 | 0.68 | 24 | -0.6
Cc1ccccc1NC(=O)c1ccc(OCc2c(C)noc2C)cc1 | 3 | i | 0.3 | 0.5 | -3 | -18 | -1.9 | 0.66 | nt | -1.9
COC(=O)C(NC(C)=O)(Nc1nc2ccc(S(C)(=O)=O)cc2s1)C(F)(F)F (centres undefined) | nt | nt | 0.8 | -0.2 | nt | nt | nt | 0.78 | -1 | nt
COc1cc(CC(=O)Nc2nccs2)cc(OC)c1OC | 1 | nt | 3.0 | 1.9 | nt | nt | nt | 0.67 | -1 | nt
CCCc1cc(=O)[nH]c2nnc(SCC(=O)Nc3cccc(NC(C)=O)c3)n12 | -1 | i | -0.2 | 0.2 | 13 | 5 | 1.9 | 0.65 | -9 | -2.7
COc1ccc(CN2C(=O)c3ccccc3C2=O)cc1C(=O)N(C)CC(=O)Nc1c(C)cccc1C | -2 | i | 0.8 | 0.5 | 6 | -1 | 3.2 | 0.68 | nt | 4.4
Cc1ccc(NC(=O)C2CC(=O)N(c3ccc4c(c3)OCCO4)C2)nc1 (centres undefined) | -5 | i | 1.7 | -0.2 | 6 | 3 | 0.7 | 0.72 | 4 | -1.0
CCN1CCN(CC(=O)n2c3c(c4ccccc42)CC(C)CC3)CC1 (centres undefined) | 3 | nt | 4.5 | -0.1 | nt | nt | nt | 0.72 | 31 | nt
CCc1ccc(NC(=O)N2CCCCCC2)cc1 | 1 | i | 5.8 | -0.1 | -3 | -1 | -1.3 | 0.68 | 1 | 1.7
O=C(c1ccc2nc(N3CCCCC3)sc2c1)N1CCN(c2ccccn2)CC1 | -1 | i | 4.0 | 0.5 | -22 | -44 | -2.0 | 0.7 | 12 | -2.7
CCN(Cc1cccc(F)c1)C(=O)c1ccc2ccccc2n1 | -9 | i | 1.4 | 0.6 | -4 | -13 | -1.0 | 0.66 | 7 | 2.1
Cc1ccc(NC(=S)NCCc2ccc(F)cc2)c(C)c1 | 2 | nt | 2.2 | 1.5 | nt | nt | nt | 0.65 | 7 | nt
C[C@H](CO)N1C[C@H](C)[C@@H](CN(C)S(=O)(=O)c2cn(C)cn2)Oc2c(NC(=O)Nc3ccc(C(F)(F)F)cc3)cccc2C1=O | -2 | i | -0.1 | -0.4 | -1&-8 | -4&-4 | 1.4&-3.1 | nt | nt | -2.7

The listing continues:
SMILES | Beta apoptosis | FGF22 binding | UCH37 DUB inh | Bfl-1 A1 inh | rRNA inh HTS | rRNA inh HTS OD600 | rRNA inh HTS RFP | E coli growth | T cruzi repl | MLL AF4-AF9 inh
CCN(CC)CCOC(=O)c1ccc(N/C=C(/C#N)c2nc(-c3ccc4c(c3)OCO4)cs2)cc1 | 113* | i | nt | -0.2 | 1 | 1 | 11 | nt | 49 | 12
COc1ccc(N2CCN(C(=O)COc3ccccc3)CC2)cc1 | nt | nt | 2.8 | 0.2 | nt | nt | nt | 0.7 | -5 | nt
N#Cc1nc(COc2ccc(-c3ccccc3)cc2)oc1NCc1cccnc1 | 6 | nt | 2.1 | 0.0 | nt | nt | nt | 0.71 | nt | nt
O=C(NCCCn1ccnc1)c1nc(Cn2cc([N+](=O)[O-])cn2)no1 | -1 | i | 4.6 | 0.8 | 6 | 16 | 0.0 | 0.65 | -8 | -2.6
COc1ccc(-c2csc(NC(=O)C(CC(=O)O)N3CCOCC3)n2)cc1 (centres undefined) | nt | i | nt | 0.4 | -1 | 1 | -2.1 | nt | 7 | 2.9
COc1ccc(/C=N/NC(=O)c2ccco2)cc1Cn1nc(C)c([N+](=O)[O-])c1C | -3 | i | nt | -0.2 | 12 | 9 | -0.1 | nt | 3 | 0.2
COC(=O)CNC(=O)CSc1nc2sc(-c3ccccc3)cc2c(=O)n1-c1ccccc1 | -9 | i | -11 | 1.1 | -21 | -17 | -7.5 | 0.72 | -2 | 3.8
CC1=Nc2cc(C(=O)NCCN3CCOCC3)ccc2Sc2c(C)ccc(C)c21 | 1 | i | 2.4 | 0.4 | -2 | -10 | 3.6 | 0.69 | -1 | -9.0
Cc1c(Cl)cccc1NC(=O)c1ccc(OCC(=O)NCc2ccccc2)cc1 | -4 | i | 1.5 | -0.5 | 8 | 10 | -0.5 | 0.72 | -30 | -0.2
CCc1cccc2c(C(=O)CN3C(=O)N(C)C4(CCCCC4)C3=O)c[nH]c12 | 0 | i | 1.3 | -1.2 | -22 | -25 | -1.5 | 0.64 | nt | 4.9
CC(=O)c1ccc(OCc2ccccc2)c(C)c1O | 1 | i | -0.2 | 1.4 | -7 | 3 | -0.7 | 0.69 | -6 | -1.4
O=C(NCc1ccccc1)c1ccccc1-c1nc2ccccc2[nH]1 | -12 | nt | 1.1 | 0.6 | nt | nt | nt | 0.65 | 10 | -0.8
CC(=O)Nc1ccc(Nc2c([N+](=O)[O-])cc(S(C)(=O)=O)cc2[N+](=O)[O-])cc1 | 8 | nt | 1.6 | -0.1 | nt | nt | nt | nt | 26 | nt
CC(=O)Nc1ccc(Nc2ccc(N3C(=O)CCCC3=O)cc2[N+](=O)[O-])cc1 | -4 | nt | 8.2 | 1.0 | nt | nt | nt | 0.71 | -3 | nt
O=C(NCCCc1ccncc1)C1CCC(=O)N(Cc2cccc(F)c2)C1 (centres undefined) | -3 | i | 5.7 | -0.1 | 3 | 6 | -4.1 | 0.69 | -29 | -0.6
CCOc1ccc(N=Cc2c(C)[nH]n(-c3nc4ccccc4[nH]3)c2=O)cc1 | 114* | i | -41 | -8.4 | 17 | 11 | 2.1 | 0.72 | 4 | -2.5
COc1ccc(N2CCN(C(=O)COc3cccc4ccccc34)CC2)cc1 | 0 | nt | -1.0 | -0.2 | nt | nt | nt | 0.69 | 7 | nt
O=C(CSc1nnc(NC(=O)C2CCC2)s1)Nc1ccccc1Br | -8 | i | -1.1 | -0.1 | 2 | 2 | -1.0 | 0.71 | -12 | 1.8
CCOC(=O)c1c[nH]c2c(Cl)c(Cl)ccc2c1=O | 1 | nt | 0.1 | -1.0 | nt | nt | nt | 0.66 | -2 | nt
COc1ccc(N2CCN(S(=O)(=O)c3ccc4c(c3)CCCC4)CC2)c([N+](=O)[O-])c1 | 48 | i | 2.5 | 0.8 | 0 | -3 | -0.3 | 0.71 | 16 | -23
CCN(CC)S(=O)(=O)c1cc(NC(=O)CN2CCN(c3ccccn3)CC2)ccc1C | 0 | i | 1.6 | 0.6 | -15 | -14 | 2.7 | 0.7 | -4 | 0.7
O=C(O)CC(CC(=O)N1CCN(C(=O)c2ccco2)CC1)c1ccccc1 (centres undefined) | -4 | i | 2.1 | -0.1 | -2 | -37 | -0.6 | 0.69 | -5 | -0.8
O=C(NC1CCCCC1)C(c1ccccc1)N1CCCC1 (centres undefined) | -5 | nt | -2.5 | 0.3 | nt | nt | nt | 0.69 | -8 | nt
N#CC1=C(N)Oc2cc(O)ccc2C1c1ccccc1 (centres undefined) | -2 | nt | 4.2 | -0.6 | nt | nt | nt | 0.7 | -14 | nt
COc1ccc(CN2C(=O)C(C)Nc3ncnc(N4CCN(c5ccccc5)CC4)c32)cc1 (centres undefined) | -4 | i | 2.9 | 0.0 | 4&-2 | 6&3 | 14&3.3 | 0.7 | nt | -34&7.9
O=C(NCC1CCCCC1)C1(CC2CC(c3ccc(Cl)cc3)=NO2)CCNCC1 (centres undefined) | -8 | i | 5.5 | -0.4 | -55 | -76 | -28 | 0.67 | 13 | 9.0
Cc1ccc(N2C(=O)CSC2=S)cc1C | -5 | i | 7.1 | 0.5 | 5 | 14 | 20 | 0.68 | -9 | -0.2
CC(C)CN(C(=O)COC(=O)C12CC3CC(CC(Cl)(C3)C1)C2)c1c(N)n(Cc2ccccc2)c(=O)[nH]c1=O | 81* | i | 0.7 | -0.2 | 14 | 14 | 4.0 | 0.65 | 6 | 0.9
OC[C@@H]1CCCN1Cc1nc(-c2cccs2)no1 | -1 | i | 2.8 | -0.7 | 22 | 10 | 0.3 | 0.7 | -15 | -1.4
O=C(Nc1ncn[nH]1)c1ccccc1O | -8 | i | -204 | 0.3 | 1 | -2 | -4.0 | 0.69 | 0 | -37

Entries of single compounds from above:
Results for `O=C(CSc1nnc(NC(=O)C2CCC2)s1)Nc1ccccc1Br` : Beta apoptosis: -8; FGF22 binding: i; UCH37 DUB inh: -1.1; Bfl-1 A1 inh: -0.1; rRNA inh HTS: 2; rRNA inh HTS OD600: 2; rRNA inh HTS RFP: -1.0; E coli growth: 0.71; T cruzi repl: -12; MLL AF4-AF9 inh: 1.8
Results for `Cc1ccc(S(=O)(=O)N2CCC(C(=O)NC3CCCC3)CC2)cc1Cl` : Beta apoptosis: 1; FGF22 binding: i; UCH37 DUB inh: -3.2; Bfl-1 A1 inh: 0.2; rRNA inh HTS: 6; rRNA inh HTS OD600: 12; rRNA inh HTS RFP: -1.9; E coli growth: 0.67; T cruzi repl: 7; MLL AF4-AF9 inh: -8.2
